# Source: PubChem BioAssay
# Mtb bLac sens = beta-lactam sensitization of Mtb H37Rv; M. tuberculosis H37Rv growth with meropenem, percent inhibition; hits of this screen are not shown here; inhibition, % at 25 µM; 330,000 tested, 0.27% active;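 active = about 74% or more and at least 40 points above the plate without the antibiotic, then above 30% in a dose series; inconclusive = first-round hits that could not be retested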;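 note: growth measured after seven days incubation then overnight dye step; 0% = bacteria only wells and 100% = bacteria with antibiotic; twin plates without the antibiotic show which effects depend on it; some results filed as inactive read as strong as hits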
# Mtb growth = M. tuberculosis H37Rv growth inhibitors, H37Rv strain (AID 1626); M. tuberculosis H37Rv growth inhibition; higher % means a stronger effect; inhibition, % at 10 µM, or IC50 in µM where a hit was titrated; 220,000 tested, 0.95% active;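 active = confirmed in a dose series; inconclusive = inhibition above 80% but not taken into the dose series; inactive = below 80% or under 30% at every dose of the series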;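 note: bacteria incubated seven days before Alamar blue readout; 0% = bacteria only wells and 100% = bacteria with antibiotic wells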
# RecA splice inh = Mtb RecA intein splicing inhibition | P9WHJ3 | cell-free RecA intein splicing, fluorescence | inhibition, %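 (about 9 µM by stock and volumes)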 | 290,000 tested, 0.75% active | AID 2221; in the data active = inhibition above about 30%; inconclusive = no clear call, values can overlap the other calls;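 note: 0% = vehicle wells and 100% = reference inhibitor control wells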
# Target sequence (P9WHJ3 whole entry, looked up, canonical isoform): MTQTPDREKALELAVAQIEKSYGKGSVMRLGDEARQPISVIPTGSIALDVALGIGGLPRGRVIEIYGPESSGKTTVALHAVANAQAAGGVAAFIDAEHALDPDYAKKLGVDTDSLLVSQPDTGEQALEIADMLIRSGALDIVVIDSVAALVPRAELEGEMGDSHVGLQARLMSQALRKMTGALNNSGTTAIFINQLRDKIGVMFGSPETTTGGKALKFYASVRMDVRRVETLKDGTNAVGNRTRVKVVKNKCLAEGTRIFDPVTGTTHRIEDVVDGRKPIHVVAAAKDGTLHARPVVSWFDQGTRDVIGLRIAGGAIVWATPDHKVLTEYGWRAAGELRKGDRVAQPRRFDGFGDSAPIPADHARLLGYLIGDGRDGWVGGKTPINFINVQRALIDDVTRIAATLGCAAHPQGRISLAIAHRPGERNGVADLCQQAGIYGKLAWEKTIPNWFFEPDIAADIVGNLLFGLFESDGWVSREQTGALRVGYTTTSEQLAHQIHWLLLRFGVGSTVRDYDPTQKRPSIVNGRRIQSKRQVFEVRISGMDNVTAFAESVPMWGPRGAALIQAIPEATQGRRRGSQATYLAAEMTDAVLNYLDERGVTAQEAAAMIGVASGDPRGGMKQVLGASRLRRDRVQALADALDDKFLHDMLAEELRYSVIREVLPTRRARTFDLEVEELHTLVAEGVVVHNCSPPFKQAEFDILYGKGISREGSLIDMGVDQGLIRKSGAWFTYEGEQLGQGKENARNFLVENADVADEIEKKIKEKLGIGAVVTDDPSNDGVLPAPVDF
# YopH PTP inh = blocks Yersinia enterocolitica YopH tyrosine phosphatase | fluorescence Ex485/Em525 | inhibition, %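 (about 10 µM by stock and volumes)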 | 140,000 tested, 0.16% active;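 active = inhibition of 50% or more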;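 note: controls were vehicle for no effect and minimum signal wells for full effect; inactives centre near -20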
# Arbovirus anti = arbovirus infection inhibition; AID 1251; inhibition, % at 10 µM; arbovirus infection cell-based antiviral screen; 200,000 tested, 0.37% active;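 active = inhibition from about 30%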;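 note: bluetongue infection of BSR cells; cell survival read as ATP light after 72 h; 0% = infected wells without compound and 100% = uninfected wells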
# Arbovirus anti repeat = recorded beside Arbovirus anti, whose call it bears; inhibition, %; measured here: 10K subset replicate screen; many hits read low in the repeat;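 first of two repeat runs on a subset; 0% = infected and 100% = uninfected wells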
# Numbers without * were called inactive; ? = inconclusive; · = no result given. Only part of the results is shown. The share of hits here may be higher or lower than overall.
SMILES,Mtb bLac sens,Mtb growth,RecA splice inh,YopH PTP inh,Arbovirus anti,others
Cc1oc2c(C)c3oc(=O)c(CCC(=O)NCCN4CCOCC4)c(C)c3cc2c1C,2.7,·,2.4,·,·,
Cc1ccc(CSc2nnc(-c3ccc(S(=O)(=O)N4CCCC4)cc3)o2)cc1,4.0,-5.9%,0.3,-11.8,-6.9,
O=C(c1cccc(C(F)(F)F)c1)N1CCOc2ccccc21,-2.9,·,0.0,·,·,
O=C(Nc1cccc([N+](=O)[O-])c1)c1ccc(-c2ccccc2)cc1,-3.6,7.9%,2.1,-15.8,2.4,
COc1cc([N+](=O)[O-])ccc1NC(=O)NCCCN1CCCC1=O,-0.4,·,2.5,·,·,
COCCNC(=O)/C(C#N)=C/c1cccc(OCc2ccccc2)c1,21.7,1.2%,10.7,·,-5.3,
COCCNC(=O)c1ccccc1NC(=O)c1ccccc1N(C)S(=O)(=O)c1ccccc1,1.1,6.1%,-4.8,-3.1,4.2,
Cc1ccc(/C=C/C(=O)Nc2ncc(C)s2)o1,-4.4,94.3%,10.5,-7.6,-1.9,
COc1cc(NC(=S)N2CCN(c3ccccn3)CC2)cc(OC)c1OC,-6.2,-6.4%,1.0,·,2.7,
COc1ccc(C(=O)Cn2nnc(-c3ccccc3-n3cnnn3)n2)cc1,4.4,5.5%,1.8,-30.1,6.2,
Cc1ccc(N)c(C(=O)CCCCC(=O)O)c1,-7.7,-2.3%,-1.4,-20.0,-28.0,
Cc1ccc(C)c(NC(=O)C(Sc2nncn2C)c2ccccc2)c1 (stereo unspecified),-5.3,-4.1%,-1.9,-21.2,-0.4,
COc1cc(/C=C/C(=O)N2c3ccccc3Sc3ccc(C(F)(F)F)cc32)cc(OC)c1OC,-9.7,4.9%,-1.2,0.4,10.2,
O=C(NCc1ccco1)c1csc(Nc2ccccc2Cl)n1,5.0,-5.7%,3.7,22.6,-0.6,
CC1Cc2ccccc2N1C(=O)CSc1nncn1C (stereo unspecified),-4.5,-0.5%,0.3,·,8.3,
O=C(COC(=O)c1ccccc1O)Nc1ccc(S(=O)(=O)N2CCCCC2)cc1,3.0,8.9%,1.9,·,11.3,
Cc1ccc(NC(=O)c2ccc3c(c2)C(=O)N(Cc2cccnc2)C3=O)c(C)c1,-5.3,-1.7%,0.3,·,4.7,
O=C1NC(=S)N/C1=C/c1cc2c(cc1[N+](=O)[O-])OCO2,3.1,·,0.3,·,·,
CCOc1ccc(NS(=O)(=O)c2ccc3[nH]cc(C(=O)N(CC)CC)c(=O)c3c2)cc1,-4.1,·,·,-44.3,7.9,
Cc1ccc(OCC(=O)N2CCN(c3nnc(-c4ccccc4)c4ccccc34)CC2)cc1,13.3,-5.4%,·,2.9,-29.8,
O=C(CN1C(=O)/C(=C/c2ccccc2)SC1=S)NC1CCS(=O)(=O)C1 (stereo unspecified),3.5,·,-1.6,·,·,
COc1ccc(OC)c(-n2nnnc2SCC(=O)O)c1,1.6,-16.6%,-0.4,-32.7,9.6,
CCCCCCCCN1[C@@H](CC(=O)OC)c2cc(F)ccc2S1(=O)=O,-6.9,1.6%,3.9,·,·,
O=C(c1ccc(-c2nnc(Nc3ccccc3)c3ccccc23)cc1)N1C[C@H]2C[C@H](C1)c1cccc(=O)n1C2,-13.8,7.7%,4.7,23.8,-22.0,
CCOC(=O)c1[nH]c2ccccc2c1NC(=O)c1ccc(Br)o1,4.5,0.7%,2.4,26.7,7.9,Arbovirus anti repeat=5.6
CC(C)(C)c1oc(C(=O)O)cc1CN1CCOCC1,-1.9,7.9%,-5.1,·,·,
COc1ccc(CCNC(=O)C2CCN(S(=O)(=O)c3cccs3)CC2)cc1OC,-0.9,0.6%,-1.0,·,-1.4,
CCn1c(SCc2ccccc2)nnc1-c1cccs1,-2.3,-2.6%,0.0,-13.9,-0.4,
CN(C)/C=C(\C#N)c1nc2ccccc2[nH]1,9.0,-8.8%,0.1,-2.2,-0.6,
COC(=O)C1=C(C)NC2=C(C(=O)CCC2)C1c1cn(Cc2ccc(Cl)cc2Cl)nc1-c1ccccc1 (stereo unspecified),3.0,21.1%,-63.0,-18.3,-18.9,

# In the list so far, 3 have fluorine.
SMILES,Mtb bLac sens,Mtb growth,RecA splice inh,YopH PTP inh,Arbovirus anti,others
O=C(c1cccc(C(F)(F)F)c1)N1CCOc2ccccc21,-2.9,·,0.0,·,·,
COc1cc(/C=C/C(=O)N2c3ccccc3Sc3ccc(C(F)(F)F)cc32)cc(OC)c1OC,-9.7,4.9%,-1.2,0.4,10.2,
CCCCCCCCN1[C@@H](CC(=O)OC)c2cc(F)ccc2S1(=O)=O,-6.9,1.6%,3.9,·,·,

# Additional results follow.
SMILES,Mtb bLac sens,Mtb growth,RecA splice inh,YopH PTP inh,Arbovirus anti,others
Cn1c(CSCc2ccc(Cl)c(Cl)c2)nnc1SCC(=O)Nc1nccs1,-2.7,-1.6%,-1.1,10.6,-5.3,
CCn1c(CSc2nc3ccccc3[nH]2)n[nH]c1=S,?,-8.4%,3.0,-8.4,3.1,
O=C(Nc1ccc(F)cc1)c1ccc(COc2ccccc2)cc1,3.9,2.8%,-1.9,-14.2,-10.7,
O=C1CC(C(=O)N2CCOCC2)C2(CCCCC2)O1 (stereo unspecified),3.2,-8.4%,0.3,-7.3,1.5,
COc1ccc(Cn2c(=O)c3[nH]cnc3n(-c3ccc(C)cc3)c2=O)cc1,-14.4,-4.2%,1.6,·,·,
CC(C)(C)c1ccc(O)c(N=Cc2c(O)ccc3ccccc23)c1,31.3,·,-1.3,·,·,
CCC(C)NCCOc1cc(C)cc(C)c1C (stereo unspecified),8.1,5.7%,3.0,·,0.2,
O=C(CCN1CCN2CCCC2C1)N1c2ccccc2Sc2ccc(Cl)cc21 (stereo unspecified),6.7,·,1.4,·,·,
Cc1ccc(C)c(C(=O)COC(=O)CN2C(=O)C3C4CCC(C4)C3C2=O)c1 (stereo unspecified),0.2,·,4.2,·,·,
OC(c1ccc(F)cc1)C(CN1CCOCC1)c1ccccc1 (stereo unspecified),-6.9,·,0.5,·,·,
C=CCOc1ccccc1/C=c1\sc2nc(=O)c(C)nn2c1=O,4.9,-7.1%,-2.0,-22.4,4.8,
COC(=O)C1CCN(C(=O)Cc2ccc(OC)c(OC)c2)CC1,4.5,2.1%,0.1,-27.5,-5.1,
Cc1nc2ccccc2c2oc(C(=O)NCC3COc4ccccc4O3)cc12 (stereo unspecified),8.2,32.0%,7.6,-31.3,17.9,Arbovirus anti repeat=-22.4
Cc1ccc(-c2nc(CSCC(=O)NCCCN3CCOCC3)c(C)o2)cc1,-12.0,-1.9%,1.5,4.1,10.3,
Cc1nnc(SCC(=O)N2CCN(S(=O)(=O)c3ccccc3)CC2)[nH]c1=O,-8.0,2.2%,·,-18.7,2.2,
CN(C)/C=C(\C#N)C(=O)N/N=C/c1ccc(Cl)cc1,-5.9,4.6%,1.3,·,8.4,
CCCS(=O)(=O)N1CCCC(C(=O)NCC(OC)OC)C1 (stereo unspecified),-2.2,5.4%,-5.2,·,0.6,
COc1cccc(CSc2nc(N)cc(N)n2)c1,0.0,·,-0.9,·,·,
CCOc1cc(CN2CCSCC2)ccc1O,-7.8,-5.8%,-1.6,-13.0,2.1,Arbovirus anti repeat=8.3
CC(=O)Oc1c(C(=O)c2nnc(C)o2)c(=O)n(Cc2ccccc2)c2ccccc12,-8.3,-7.2%,-9.1,-27.0,1.9,
Cc1cnc(NC(=O)c2ccc3c(c2)C(=O)N(Cc2cccnc2)C3=O)s1,-8.1,·,-6.2,·,·,
CSc1nc(=S)c2[nH]c(=S)[nH]c2[nH]1,6.1,-19.5%,-3.8,·,·,
COCCn1c(=O)[nH]c2cc(C(=O)NCCc3ccc(S(N)(=O)=O)cc3)ccc2c1=O,2.5,4.6%,·,·,1.5,
COc1ccc2oc(C(=O)OCC(=O)Nc3ccc(OC)c(S(N)(=O)=O)c3)c(C)c2c1,-0.7,·,-2.3,·,·,
O=C(C=C1CCN(c2ncc(C(F)(F)F)cc2Cl)CC1)NNC(=O)Nc1ccc(Cl)cc1,-5.3,4.0%,-1.3,-28.1,4.1,
Nc1ccc(CNC(=O)OCC2c3ccccc3-c3ccccc32)cc1,-5.0,7.5%,1.9,·,·,
O=C(NS(=O)(=O)c1ccccc1)c1cccc(Br)c1,-14.6,·,0.2,·,·,
CCC(C)NC(=O)C1CCN(S(=O)(=O)c2ccc3c(c2)CC(C)N3C(C)=O)CC1 (stereo unspecified),-1.4,·,-2.3,·,·,
CN(C)S(=O)(=O)c1ccc(Cl)c(C(=O)NC2=NCCS2)c1,-4.0,·,-0.1,·,·,
CCOC(=O)c1c(NC(=O)CCN2CCOCC2)sc(C)c1-c1ccccc1,0.3,12.0%,10.3,·,2.3,

# Five records picked at random from those above:
SMILES,Mtb bLac sens,Mtb growth,RecA splice inh,YopH PTP inh,Arbovirus anti,others
COc1ccc2oc(C(=O)OCC(=O)Nc3ccc(OC)c(S(N)(=O)=O)c3)c(C)c2c1,-0.7,·,-2.3,·,·,
Cc1ccc(OCC(=O)N2CCN(c3nnc(-c4ccccc4)c4ccccc34)CC2)cc1,13.3,-5.4%,·,2.9,-29.8,
CCCCCCCCN1[C@@H](CC(=O)OC)c2cc(F)ccc2S1(=O)=O,-6.9,1.6%,3.9,·,·,
CCOc1cc(CN2CCSCC2)ccc1O,-7.8,-5.8%,-1.6,-13.0,2.1,Arbovirus anti repeat=8.3
CCOC(=O)c1[nH]c2ccccc2c1NC(=O)c1ccc(Br)o1,4.5,0.7%,2.4,26.7,7.9,Arbovirus anti repeat=5.6

# Continuation:
SMILES,Mtb bLac sens,Mtb growth,RecA splice inh,YopH PTP inh,Arbovirus anti,others
O=C(CN(Cc1ccccc1F)S(=O)(=O)c1ccc(Cl)cc1)NCCC1=CCCCC1,-16.3,-1.7%,-2.3,-28.5,-11.0,
Cc1ccc(OCc2cc(C(=O)N(C)CCc3ccccn3)no2)cn1,2.4,·,-5.3,·,·,
CCOc1ccccc1NC(=O)Nc1ccccn1,3.5,4.3%,·,·,·,
CCCNC(=O)c1nc(C)n(-c2ccc([N+](=O)[O-])cc2)n1,4.5,4.5%,-0.6,·,12.8,
O=C(CN1CCN(CC(=O)Nc2cccc(F)c2)CC1)Nc1ccc(-c2ccccc2)cc1,0.1,·,3.3,·,·,
COc1ccc(S(=O)(=O)N2CCCCC2)cc1Br,1.1,-2.0%,0.5,8.7,-4.5,
CC(Sc1nc2ccccc2s1)C(=O)Nc1ccc2c(c1)OCO2 (stereo unspecified),5.3,11.0%,0.5,-23.4,-14.6,
Cc1ccc(Cn2nc(-c3ccccc3)nc2-c2ccccc2)cc1,-4.5,·,4.7,-23.1,6.6,
c1ccc(-c2nnc3sc(CN4CCC5(CC4)OCCO5)cn23)cc1,-16.4,-1.7%,-3.4,-32.4,6.1,
CCCCCc1nnc(NC(=O)CS(=O)(=O)Cc2ccccc2)s1,13.1,-5.1%,·,-13.3,6.6,
O=C(NCCCN1CCOCC1)c1ccc(-c2ccc(Cl)cc2)o1,47.1,11.2%,1.2,·,-0.5,
O=C(NCc1ccco1)C(Cc1ccccc1)N1C(=O)c2ccccc2C1=O (stereo unspecified),-4.5,-2.4%,·,-4.3,-6.7,
COc1ccc(C(=O)C2CCCN(C(=O)c3noc4c3CCCC4)C2)cc1F (stereo unspecified),-6.1,0.9%,-0.6,·,4.7,
Clc1ccccc1-c1nnc(-c2ccccc2Cl)o1,-1.5,1.9%,2.3,1.1,-0.8,
CCN(CC)C(=O)c1ccc(COc2ccccc2Cl)cc1,7.8,-1.8%,5.2,-14.0,-15.8,
CCn1c(OC)nc2c1c(=O)n(C)c(=O)n2C,-4.4,-0.1%,0.6,·,2.2,
Nc1nonc1NN=C1CCCCC1,1.1,6.5%,-5.4,·,·,
COc1ccccc1C(=O)Nc1onc(C)c1C#N,-3.5,3.4%,-0.9,·,-0.8,
CCN1C(=O)N(C(C)=O)C2C1N(C(C)=O)C(=O)N2C(C)=O (stereo unspecified),0.5,-0.7%,1.9,·,5.4,
COc1cccc(/C=N/n2c(C)nc3ccccc32)c1OC,94.1,0.6%,1.9,-83.6,1.0,
CCOC(=O)NCc1ccc(CNC(=O)OCC)cc1,-16.6,-5.0%,·,-38.5,7.2,Arbovirus anti repeat=1.5
CSc1nnc(-c2cccc(NC(=S)NN)c2)o1,47.8,-5.7%,·,·,3.3,
CN1CC(c2ccccc2)C(c2ccc(Cl)cc2)=N1 (stereo unspecified),14.4,4.6%,1.5,-33.1,-4.2,
Cc1[nH]n(-c2ccccc2)c(=O)c1N=Nc1cccc(Cl)c1,26.5,·,0.5,·,·,
Cc1cc(NC(=O)C(C)SCC(=O)Nc2ccccc2N2CCCC2)no1 (stereo unspecified),-5.6,·,-5.2,·,·,
Cc1cc(C)cc(N(CC(=O)NC2CCCCC2)C(=O)c2ccc(C)s2)c1,6.7,-4.0%,2.9,0.3,-1.4,
CCCc1c(C)c2ccc(OCC(C)=O)cc2oc1=O,51.1,3.5%,1.7,-22.9,-7.8,
